T cruzi inh: blocks replication of Trypanosoma cruzi; T. cruzi beta-gal in NIH3T3, luminescence, 90 h; inhibition, % (test concentration not listed); 300,000 compounds, 1.4% hits; AID 1885;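 active = mean inhibition across valid replicates above about 55%, limit read from the data; inconclusive = mean below that limit but half or more replicates reach it; inactive = mean below it, under half of replicates reach it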;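 note: signal also drops with host cell toxicity which is not excluded here; 0% = plate median of DMSO wells and 100% = zero luminescence signal; higher percent means less beta-gal luminescence so fewer parasites; stock transfer was 50 nL into about 50 µL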
ALR H2O2 inh: inhibitors of human sulfhydryl oxidase ALR. inhibition, % (concentration not given with the values). purified ALR, DTT oxidation, H2O2 HRP-luminol luminescence. 290,000 compounds, 3.8% hits. P55789;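 active = mean and each replicate at 75% or more; inconclusive = only one of the two met; inactive = neither met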;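 note: stock transfer was 7.5 nL into about 7.5 µL; 0% = neutral wells and 100% = wells with inactivated enzyme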
Target sequence (P55789 whole entry, looked up): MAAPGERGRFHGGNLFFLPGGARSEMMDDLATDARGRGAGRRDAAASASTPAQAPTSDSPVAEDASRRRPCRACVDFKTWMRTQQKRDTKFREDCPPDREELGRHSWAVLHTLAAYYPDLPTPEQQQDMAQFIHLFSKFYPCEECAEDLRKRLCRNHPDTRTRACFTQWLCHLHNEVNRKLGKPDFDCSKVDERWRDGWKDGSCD
RanGTP-Impb inh: disruptors of Ran-importin-beta complex formation – biochemical, FRET, CFP-Ran, YFP-importin-beta, homogeneous, primary screen. cell-free CFP-Ran/YFP-importin-beta FRET ratio. inhibition, % (no concentration beside the values). 300,000 compounds, 1.1% hits;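 active = most replicates above 15%; inconclusive = exactly half above 15%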;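 note: 0% = DMSO wells and 100% = Ran loaded with GDP instead of GTP; wells of about 40 µL received 100 nL stock; the first replicate is given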
FGF22 binding: FGF22 (human) thermal shift binding | Q9HCT0 | recombinant FGF22 thermal shift, SYPRO orange fluorescence; percent of sucrose octasulfate shift, DMSO zero | calls only at 9.99 µM | 340,000 compounds, 1.5% hits;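 active = melting point raised past a set limit in the mean and every replicate; inconclusive = no clear call; three in four hits are not shown here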
Target sequence (Q9HCT0 whole entry, looked up): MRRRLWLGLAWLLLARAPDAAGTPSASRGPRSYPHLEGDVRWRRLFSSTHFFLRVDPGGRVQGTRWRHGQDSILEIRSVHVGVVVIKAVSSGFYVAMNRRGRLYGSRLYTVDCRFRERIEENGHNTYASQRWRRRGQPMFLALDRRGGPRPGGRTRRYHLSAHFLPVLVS
Calb FLC: C. albicans growth modulation with fluconazole. growth inhibition, % (concentration not given with the values). 300,000 compounds, 0.57% hits. C. albicans CaCi-2 (fluconazole-resistant clinical isolate) + fluconazole, Alamar Blue growth, 48 h;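 active = most replicates above 75%; inconclusive = exactly half above 75%; inactive = most below 75%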;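 note: all wells also contain fluconazole at 8 µg/ml as a sub-toxic cotreatment; 0% = median of DMSO wells and 100% = median of geldanamycin control wells; wells of about 8 µL received 7.5 nL stock; the first replicate is given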
Beta apoptosis: blocks beta cell apoptosis | 300,000 compounds, 0.8% hits | protection from apoptosis, % (concentration not given with the values) | AID 435005 | INS-1E cytokine-induced death, ATP luminescence, 48 h; percent of positive-control rescue, neutral wells zero;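 active = all replicates at 75% or more, or half of them and the mean; inconclusive = half reach 75% but not the mean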;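 note: 0% = cytokine-treated negative control wells and 100% = positive control rescue; higher means more ATP so stronger rescue from cytokine killing; wells of about 40 µL received 100 nL stock; the first replicate is given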
Ecoli rRNA inh: selective bacterial rRNA inhibition in E. coli | E. coli WT GFP vs humanized-ribosome RFP mutants, fluorescence, 24 h; hits give low values; DMSO median 0, no signal -100 | GFP signal change (wild-type ribosome), % (test concentration not listed) | 350,000 compounds, 1.6% hits | AID 720706;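 active = significant combined selectivity score with lowered wild-type GFP, culture density cut under 30%, mutant RFP and density less affected; inactive = any of these conditions unmet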; note: one replicate is shown; some compounds called inactive have numbers as strong as hits
MLL AF4-AF9 inh: inhibitors of human MLL-AF4/AF9 interaction | AlphaScreen, biotin-AF4 peptide binding to FLAG-AF9 | inhibition, % at 10 µM | AID 651704 | P42568 | 350,000 compounds, 0.47% hits;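 active = every replicate reaching a set inhibition limit, whatever the replicate mean, cut at about 25% in these data; inconclusive = mean inhibition reaches that limit but some replicates miss it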;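 note: 0% = plate neutral control median and 100% = total signal loss; the record names both 10 and 1 µM as test concentration; the first replicate is given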
Target sequence (P42568 whole entry, looked up): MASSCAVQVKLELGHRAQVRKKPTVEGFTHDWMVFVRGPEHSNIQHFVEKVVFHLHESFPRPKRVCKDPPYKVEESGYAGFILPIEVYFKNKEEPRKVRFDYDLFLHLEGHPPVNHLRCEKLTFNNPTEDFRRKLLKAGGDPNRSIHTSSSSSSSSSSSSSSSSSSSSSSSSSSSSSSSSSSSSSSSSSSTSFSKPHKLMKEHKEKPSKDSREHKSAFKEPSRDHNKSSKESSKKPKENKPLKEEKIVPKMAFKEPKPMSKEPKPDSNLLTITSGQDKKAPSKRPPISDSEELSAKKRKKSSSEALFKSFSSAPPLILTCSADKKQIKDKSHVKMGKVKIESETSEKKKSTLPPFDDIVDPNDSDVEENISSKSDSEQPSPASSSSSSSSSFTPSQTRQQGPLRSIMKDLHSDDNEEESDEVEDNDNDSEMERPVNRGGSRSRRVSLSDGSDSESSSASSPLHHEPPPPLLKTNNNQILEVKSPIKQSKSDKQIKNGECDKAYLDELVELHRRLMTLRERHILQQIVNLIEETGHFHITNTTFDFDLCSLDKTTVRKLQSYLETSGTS
Ecoli rRNA inh OD600: second read-out of Ecoli rRNA inh, no call of its own (marks repeat the call); OD600 change, %; measured here: OD600 growth;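 optical density of the mix in the first replicate; 0 = DMSO median and -100 = no signal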
Ecoli rRNA inh RFP: recorded beside Ecoli rRNA inh, whose call it bears; RFP signal change, %; measured here: RFP humanized mutant strains;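 first replicate; 0 = DMSO median and -100 = no signal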
The depositor's hits bear a star; i = inactive; ? = inconclusive; / = no result given; & = joins results of further samples.

molecule | T cruzi inh | ALR H2O2 inh | RanGTP-Impb inh | FGF22 binding | Calb FLC | Beta apoptosis | Ecoli rRNA inh | Ecoli rRNA inh OD600 | Ecoli rRNA inh RFP | MLL AF4-AF9 inh
CCn1c(=O)cc(OCC(=O)N2CCCC2)c2ccccc21 | -9 | -4 | -2.0 | i | 4 | 3 | 3 | 11 | -0.9 | -5.3
CCc1cccc(CC)c1NC(=S)Nc1ccc2cn[nH]c2c1 | -10 | -9 | -3.8 | i | -1 | -6 | -24 | -27 | -19 | 4.1
CC(=O)N(CCOc1ccccc1)CCOc1ccccc1 | 5 | -15 | 1.6 | i | -3 | -4 | -23* | -5.8* | -3.3* | 0.1
N#Cc1ccccc1S(=O)(=O)N1CCN(C(=O)Cc2n[nH]c(=O)c3ccccc23)CC1 | / | 4 | / | i | / | -7 | -2 | -1 | 2.6 | 1.4
Cc1cc(C)c2nc(SC(C)C#N)cc(C)c2c1 (stereo not drawn) | -1 | -13 | 1.8 | / | -1 | -2 | / | / | / | /
CS(=O)(=O)N(Cc1ccc(C(=O)N2CCc3ccccc3C2)cc1)c1ccccc1 | 23 | -6 | -1.9 | i | 31 | / | -33 | -40 | -4.5 | -0.4
Nc1nc2sc3c(c2cc1C(=O)NCC(=O)O)CCCC3 | -6 | 32 | 7.1 | i | 2 | 3 | 3 | 10 | -2.5 | -1.6
CC1=NN(c2ccc(Cl)c(C(=O)O)c2)C(=O)/C1=C\c1ccc(-c2ccc(C(=O)O)cc2)o1 | -3 | / | 4.8 | i | -12 | / | 12 | 14 | 1.2 | -0.4
CC(NC(=O)COC(=O)c1ccc2c(c1)OCCO2)c1ccccc1 (stereo not drawn) | / | -1 | / | i | / | -5 | -1 | 0 | -0.9 | -1.4
CCC1CCCCN1C(=O)CSc1nnc(CNC(=O)c2ccco2)o1 (stereo not drawn) | -2 | 4 | 1.7 | / | -1 | -13 | / | / | / | /
O=c1c2ccccc2nc(SCCN2CCCCC2)n1CCc1ccccc1 | 63* | 20 | 1.9 | i | 10 | 13 | -53 | -78 | -10 | 18
O=S(=O)(Cc1ccccc1)Nc1cccc(Br)c1 | 5 | -14 | -6.1 | i | -11 | -4 | -16 | -31 | -6.0 | -0.8
N#Cc1ccc(CSc2nnc(-c3ccccn3)n2-c2ccccc2)cc1 | -14 | -34 | -1.7 | / | -4 | -1 | / | / | / | /
Cn1c(SCc2c(F)cccc2Cl)nc2c(c1=O)SCC2 | 11 | / | 5.5 | i | 30 | -5 | -51 | -67 | -8.0 | 14
CCOc1cccc(/C(O)=C2/C(=O)C(=O)N(CCN3CCOCC3)C2c2ccncc2)c1 (stereo not drawn) | -17 | 7 | -1.3 | / | 0 | 2 | / | / | / | /
CC1(C)CC(=O)C2=C(C1)Nc1ccccc1NC2c1cccs1 (stereo not drawn) | -24 | 99* | -0.9 | i | ? | -3 | 13 | -7 | 16 | -0.9
CC1CC(C)(C)N2C(=O)C3(Nc4ccccc4S3)c3cccc1c32 (stereo not drawn) | 23 | 49 | 2.6 | / | 1 | -5 | / | / | / | /
CCc1ccc(Nc2nnc(SCC(=O)Nc3ccc(C(=O)O)cc3)s2)cc1 | -3 | -2 | 2.5 | i | 9 | 0 | 7 | 7 | 3.1 | -8.6
C/C(O)=C\c1nc(=O)c2c(C)cc(C)nc2n1-c1ccccc1 | -17 | -4 | 7.7 | / | / | 1 | / | / | / | /
Clc1ccc(COn2nnc3ccccc32)c(Cl)c1 | 1 | -3 | 0.5 | / | -7 | 0 | / | / | / | /
C[C@H]1COC(=O)[C@@H](Cc2ccc(F)cc2)CC/C=C\C[C@H](CC(=O)NCCO)C(=O)N1 | / | 1 | / | i | / | 4 | 7 | 10 | 0.4 | /
O=C(NCCCNC(=O)c1ccc(Cl)cc1Cl)c1ccco1 | 18 | -14 | -2.1 | i | 3 | / | -2 | -7 | 0.0 | -1.5
Cc1c(Cc2ccccc2)c(=O)oc2c(C)c(OCC(=O)N3CCC(C(=O)O)CC3)ccc12 | -12 | / | -2.5 | i | -1 | 0 | / | / | / | -0.1
CC(C)(O)CNC(=O)Nc1ccc(Cl)c(Cl)c1 | 0 | -8 | -0.7 | i | 3 | -4 | / | / | / | 2.2
CCOC(=O)CSCC(NC(=O)OC(C)(C)C)C(=O)OCC (stereo not drawn) | -15 | -9 | 0.6 | / | -7 | 2 | / | / | / | /
CC(=O)Nc1ccc(SCC(=O)Nc2ccccc2N2CCOCC2)cc1 | / | -1 | / | i | / | -1 | 2 | 4 | 3.1 | -1.7
CCN(CC)C(=O)COc1coc(CN2CCN(c3ccc(F)cc3)CC2)cc1=O | 1 | 25 | 6.1 | i | 8 | / | 7 | 4 | -0.7 | -1.1
COc1cccc(CCN2CCC(CNS(=O)(=O)c3cc(-c4cc(C)no4)ccc3C)CC2)c1 | 29 | -17 | -0.3 | i | 3 | 8 | -12 | -8 | 6.6 | 3.5
O=[N+]([O-])c1ccc(N2CCN(Cc3ccc(Br)o3)CC2)cc1 | -5 | 5 | ? | i | -39 | -4 | -12 | -5 | -2.7 | 12
O=C(Nc1cccc(O)c1)c1cnn2cccnc12 | -5 | -1 | 4.3 | i | -2 | 2 | 1 | 0 | -5.1 | 1.2
CCN(C(=O)Cc1c(C(=O)O)[nH]c2ccccc12)c1cc(OC)ccc1OC | -2 | -20 | -3.2 | / | 10 | -6 | / | / | / | /
Cc1nn(CC(=O)OCC(=O)c2ccc(OC(F)F)cc2)c(C)c1[N+](=O)[O-] | / | / | / | i | / | -7 | 10 | 8 | 1.3 | -0.7
O=C(/C=C/c1ccccc1O)c1ccc(Cl)cc1 | -9 | 52 | -4.9 | i | 9 | -1 | -60 | -79 | -26 | -1.9
O=C(NCCN1CCOCC1)c1cc(-c2cccc(O)c2)on1 | -4 | / | 0.0 | i | -1 | 0 | -8 | -11 | 0.7 | -1.9
COc1ccc(C2=NN(C(=O)c3cccs3)C(c3ccccc3OC)C2)cc1OC (stereo not drawn) | 28 | -12 | ? | i | 2 | 10 | 20 | 24 | 4.7 | 3.5
Cc1nc2ccccc2c(=O)n1CCCn1ccnc1 | -9 | 1 | 1.2 | / | 0 | -2 | / | / | / | /
O=C(NC1CC1)C1=C[C@@H](C2CCCCC2)C[C@@H](OCCCCO)O1 | 7 | / | 0.3 | i | 10 | -2 | 3 | 1 | -0.2 | -3.7&-3.2
COC(=O)C1=CN(c2ccc(F)c(F)c2)C=C(C(=O)OC)C1c1ccc([N+](=O)[O-])cc1 | 31 | / | -5.1 | i | 7 | 17 | 9 | 9 | 3.4 | 8.4
COc1ccc(S(=O)(=O)N2CCCC(C(=O)NCc3ccc4c(c3)OCO4)C2)cc1 (stereo not drawn) | 12 | / | -2.1 | i | -5 | 4 | 12 | 7 | -7.8 | 0.6
COc1ccccc1-n1c(SCC(=O)NC2CCCC2)nc2cccnc21 | -1 | -11 | -3.9 | / | 6 | -4 | / | / | / | /

Continued, starting with the last 2 of the part before.
molecule | T cruzi inh | ALR H2O2 inh | RanGTP-Impb inh | FGF22 binding | Calb FLC | Beta apoptosis | Ecoli rRNA inh | Ecoli rRNA inh OD600 | Ecoli rRNA inh RFP | MLL AF4-AF9 inh
COc1ccc(S(=O)(=O)N2CCCC(C(=O)NCc3ccc4c(c3)OCO4)C2)cc1 (stereo not drawn) | 12 | / | -2.1 | i | -5 | 4 | 12 | 7 | -7.8 | 0.6
COc1ccccc1-n1c(SCC(=O)NC2CCCC2)nc2cccnc21 | -1 | -11 | -3.9 | / | 6 | -4 | / | / | / | /
CNC(=O)COC(=O)c1cc2c(C)nn(-c3ccc(F)cc3)c2s1 | -9 | 2 | -0.3 | i | 17 | 1 | 5 | 2 | 0.3 | 2.4
COc1ccc(C(CC(=O)N2CCN(c3ccccc3)CC2)c2c(O)cc(OC)cc2OC)cc1 (stereo not drawn) | 11 | / | -4.0 | i | 2 | 0 | -10 | -13 | 10 | 3.3
COc1ccc(/C=N/Nc2nnc(Cc3ccccc3)c(=O)[nH]2)cc1OC | 1 | 6 | -2.0 | / | -13 | 13 | 3 | 7 | -1.1 | -13
CCCNC(=O)C(=O)NCc1ccccn1 | -3 | -11 | 3.2 | / | 1 | -2 | 25 | 20 | 5.8 | -4.6
O=C(Nc1ccc(F)cc1F)c1ccc2ncsc2c1 | -20 | / | 1.8 | i | -14 | -2 | 3 | 1 | -6.2 | -15
CCCC(C(=O)NNC(=O)c1cc(C)oc1C)c1ccccc1 (stereo not drawn) | / | 5 | / | i | / | -2 | 13 | -17 | 7.5 | 3.5
O=C(CBr)N1CCc2ccccc2C(c2ccccc2)C1 (stereo not drawn) | 2 | 11 | -0.8 | i | -1 | / | -7 | 5 | 3.9 | -11
NS(=O)(=O)c1ccc(CCNC(=O)CSc2ccc([N+](=O)[O-])cc2)cc1 | 11 | 3 | -1.1 | i | 1 | -5 | -2 | 8 | -4.7 | 1.5
CC1(C)CC(=O)c2cc(C(=O)NCc3ccco3)c(=O)n(-c3ccc(Cl)cc3)c2C1 | 17 | / | 2.4 | / | -1 | 0 | / | / | / | /
CC(C)Cn1c(-c2cccs2)nc2ccccc21 | 0 | -4 | 1.0 | / | 14 | -4 | / | / | / | /
N=C1/C(=C\c2coc3ccc(O)cc3c2=O)C(=O)N=C2SC=CN12 | 5 | 69 | -78 | i | 7 | -3 | 0 | 8 | -0.3 | ?
O=S(=O)(c1ccc(-c2ccccc2)cc1)N1CCCCC1 | 0 | / | 0.5 | i | 0 | -3 | 6 | 8 | 0.2 | -0.4
COC(=O)c1cn(CC(=O)Nc2ccc(OC)cc2)c2ccccc12 | 2 | -1 | -2.3 | i | -4 | 6 | 5 | 17 | -0.1 | 4.2
O=C1CN(C(=O)COC(=O)c2oc3ccccc3c2COc2ccccc2)c2ccccc2N1 | -1 | -6 | ? | / | 10 | 1 | / | / | / | /
CC(C)(Cc1cc(CC(C)(C)C(=O)O)cc(C(C)(C)C)c1)C(=O)O | -1 | 3 | 0.9 | i | 9 | 4 | 9&-2 | 10&3 | 5.4&-1.6 | -2.2

Entries of single compounds, quoted from the list. Order of screens: T cruzi inh | ALR H2O2 inh | RanGTP-Impb inh | FGF22 binding | Calb FLC | Beta apoptosis | Ecoli rRNA inh | Ecoli rRNA inh OD600 | Ecoli rRNA inh RFP | MLL AF4-AF9 inh
N=C1/C(=C\c2coc3ccc(O)cc3c2=O)C(=O)N=C2SC=CN12 across the screens: 5 | 69 | -78 | i | 7 | -3 | 0 | 8 | -0.3 | ?
COc1ccc(/C=N/Nc2nnc(Cc3ccccc3)c(=O)[nH]2)cc1OC across the screens: 1 | 6 | -2.0 | / | -13 | 13 | 3 | 7 | -1.1 | -13

Assay outcomes (PubChem)

An excerpt, so the mix of outcomes need not match the whole.
